T cruzi repl: T. cruzi replication inhibition. inhibition, % (no concentration beside the values). T. cruzi beta-gal in NIH3T3, luminescence, 90 h. 300,000 tested, 1.4% active. AID 1885;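 active = mean inhibition across valid replicates above about 55%, limit read from the data; inconclusive = mean below that limit but half or more replicates reach it; inactive = mean below it, under half of replicates reach it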;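 also: signal also drops with host cell toxicity which is not excluded here; 0% = plate median of DMSO wells and 100% = zero luminescence signal; higher percent means less beta-gal luminescence so fewer parasites; stock transfer was 50 nL into about 50 µL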
B2AR ag: activates human beta-2 adrenergic receptor causing internalization; Am2.2-beta2AR cells, FAP receptor internalization, flow cytometry; reference of the scale not given here; response, % (concentration not given with the values); 340,000 tested, 0.43% active; AID 504454;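 active = response above a set limit, near 3 SD of response in nonfluorescent compounds, cut at about 42% in these data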;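 also: stock transfer was 100 nL into about 11 µL; a reference agonist was the positive control; negative values mostly stem from fluorescent compounds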
Target sequence (P07550 whole entry, looked up): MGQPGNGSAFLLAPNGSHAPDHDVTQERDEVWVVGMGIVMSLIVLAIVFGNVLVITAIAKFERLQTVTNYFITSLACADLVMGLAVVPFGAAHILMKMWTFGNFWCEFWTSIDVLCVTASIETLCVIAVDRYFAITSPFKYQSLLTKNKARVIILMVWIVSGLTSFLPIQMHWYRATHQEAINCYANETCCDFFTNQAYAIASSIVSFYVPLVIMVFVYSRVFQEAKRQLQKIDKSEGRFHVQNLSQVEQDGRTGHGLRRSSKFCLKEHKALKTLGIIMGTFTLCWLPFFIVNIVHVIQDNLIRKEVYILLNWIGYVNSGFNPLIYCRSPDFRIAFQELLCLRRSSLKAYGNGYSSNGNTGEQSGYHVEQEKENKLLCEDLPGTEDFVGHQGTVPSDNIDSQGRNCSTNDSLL
Ecoli rRNA inh: selective bacterial rRNA inhibition in E. coli; E. coli WT GFP vs humanized-ribosome RFP mutants, fluorescence, 24 h; stronger effect = lower value; DMSO median 0, no signal -100; GFP signal change (wild-type ribosome), % (concentration not given with the values); 350,000 tested, 1.6% active;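 active = significant combined selectivity score with lowered wild-type GFP, culture density cut under 30%, mutant RFP and density less affected; inactive = any of these conditions unmet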; also: one replicate is shown; some compounds called inactive have numbers as strong as hits
Beta apoptosis: blocks beta cell apoptosis. INS-1E cytokine-induced death, ATP luminescence, 48 h; percent of positive-control rescue, neutral wells zero. protection from apoptosis, % (test concentration not listed). 300,000 tested, 0.8% active. AID 435005;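 active = all replicates at 75% or more, or half of them and the mean; inconclusive = half reach 75% but not the mean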;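 also: 0% = cytokine-treated negative control wells and 100% = positive control rescue; higher means more ATP so stronger rescue from cytokine killing; wells of about 40 µL received 100 nL stock; the first replicate is given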
Calb FLC: affects C. albicans growth with fluconazole | C. albicans CaCi-2 (fluconazole-resistant clinical isolate) + fluconazole, Alamar Blue growth, 48 h | growth inhibition, % (no concentration beside the values) | 300,000 tested, 0.57% active | AID 1979;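 active = most replicates above 75%; inconclusive = exactly half above 75%; inactive = most below 75%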;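 also: all wells also contain fluconazole at 8 µg/ml as a sub-toxic cotreatment; 0% = median of DMSO wells and 100% = median of geldanamycin control wells; wells of about 8 µL received 7.5 nL stock; the first replicate is given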
LANA-H2B inh: blocks KSHV LANA binding to histone H2A/H2B; inhibition, % (no concentration beside the values); 320,000 tested, 0.6% active; Q9QR71; cell-free LANA-H2A/H2B peptide, fluorescence polarization; in the data active = inhibition mostly above about 10%, no sharp cut-off; inactive = mostly below about 6.7%;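 also: stock transfer was 7.5 nL into about 10 µL; 0% = median of vehicle wells and 100% = median of positive control wells; one replicate is shown; the record names a cut of 25% in any replicate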
ALR inh: human ALR oxidase inhibition via reduced H2O2; P55789; purified ALR, DTT oxidation, H2O2 HRP-luminol luminescence; inhibition, % (test concentration not listed); 290,000 tested, 3.8% active; AID 485317;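 active = mean and each replicate at 75% or more; inconclusive = only one of the two met; inactive = neither met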;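 also: stock transfer was 7.5 nL into about 7.5 µL; 0% = neutral wells and 100% = wells with inactivated enzyme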
Target sequence (P55789 whole entry, looked up): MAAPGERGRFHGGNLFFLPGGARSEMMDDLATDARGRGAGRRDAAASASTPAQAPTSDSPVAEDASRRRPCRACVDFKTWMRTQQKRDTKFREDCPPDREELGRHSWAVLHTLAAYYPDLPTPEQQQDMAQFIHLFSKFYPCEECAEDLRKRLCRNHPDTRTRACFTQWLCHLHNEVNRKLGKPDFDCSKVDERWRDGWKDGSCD
Bfl-1 A1 inh: inhibitors of the anti-apoptotic protein A1, read as caspase activation; caspase activation, % (test concentration not listed); MEF A1-2A-BIM cells, Caspase-Glo 3/7 luminescence, 3 h; percent of clofoctol response, vehicle zero; AID 2462; 330,000 tested, 0.066% active;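 active = over half of replicate activation scores above 10%, or exactly half above 10 with the replicate mean above 10; inconclusive = replicate mean below 10 yet half the replicates above 10; inactive = over half of replicates below 10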;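 also: wells of about 30 µL received 50 nL stock; many hits fall short of the cut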
Ecoli rRNA inh OD600: recorded beside Ecoli rRNA inh, whose call it bears; OD600 change, %; measured here: OD600 growth;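 optical density of the mix in the first replicate; 0 = DMSO median and -100 = no signal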
Ecoli rRNA inh RFP: recorded beside Ecoli rRNA inh, whose call it bears; RFP signal change, %; measured here: RFP humanized mutant strains;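 first replicate; 0 = DMSO median and -100 = no signal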
* = called active by the depositor; ? = inconclusive; · = not tested or not shown; & = joins results of further samples.

SMILES | T cruzi repl | B2AR ag | Ecoli rRNA inh | Ecoli rRNA inh OD600 | Ecoli rRNA inh RFP | Beta apoptosis | Calb FLC | LANA-H2B inh | ALR inh | Bfl-1 A1 inh
Cc1ccc(-n2nc(C)c3c(=O)[nH]c(C(F)(F)F)nc32)cc1 | -0.9 | · | · | · | · | 1.2 | -3.5 | -8.1 | 0.7 | 0.1
CC(C)Cn1cnc2c(c1=N)C(c1ccccc1)C1=C(CC(C)(C)CC1=O)O2 (centres undefined) | 15.6 | -3.1 | -37.9* | -12.9* | -4.3* | -3.9 | 23.7 | 4.5 | -0.6 | 0.2
CCn1c(SCC(=O)Nc2nccs2)nnc1-c1cccnc1 | 0.2 | -0.8 | 1.5 | 1.9 | -1.5 | · | -2.7 | 2.4 | -17.1 | 0.2
CC1CCCCN1C(=O)c1ccc(OC2CCN(S(=O)(=O)N(C)C)CC2)cc1 (centres undefined) | 0.4 | 7.9 | -5.5 | -8.5 | -1.0 | 9.0 | -0.5 | 2.5 | -18.6 | -0.1
CC(=O)C(=Nc1ccc(Cl)cc1Cl)NNc1cccc(Cl)c1 | 46.1 | 14.2 | · | · | · | 4.3 | -0.7 | -3.3 | 3.0 | -0.4
C[C@H](CO)N1C[C@H](C)[C@@H](CN(C)S(C)(=O)=O)Oc2ccc(NC(=O)Nc3ccc4c(c3)OCO4)cc2C1=O | · | -8.3 | 5.9&5.9 | 11.3&11.2 | -0.2&1.8 | -5.6 | · | 4.7 | -28.2 | 1.2
O=C(c1ccc2c(c1)OCCO2)C1CCN(S(=O)(=O)c2cccc(F)c2)CC1 | 17.3 | 1.9 | · | · | · | -4.9 | 0.5 | 1.8 | -3.0 | 0.1
Cc1c(C)[n+](=O)c(-c2ccco2)c(C)n1[O-] | -4.4 | -4.7 | · | · | · | 0.0 | -4.6 | 3.3 | 1.8 | 0.3
O=S(=O)(c1cccc2c(S(=O)(=O)N3CCCC3)cccc12)N1CCCC1 | 9.1 | 6.6 | · | · | · | 6.4 | -11.9 | 5.8 | -4.5 | 0.3
CCN(CC(=O)Nc1c(F)cccc1F)C(=O)c1ccc(N2CCCC2)c([N+](=O)[O-])c1 | -5.3 | -7.8 | -0.3 | -3.5 | 0.9 | 3.7 | -2.9 | -11.0 | · | -0.5
COC(=O)[C@@H](NC(=O)Nc1cccc(Br)c1)C(C)C | -10.9 | -3.2 | -0.5 | -3.3 | -3.3 | 0.7 | -27.1 | -2.6 | · | 0.1
COc1ccc(C=O)cc1CSc1ccccn1 | -5.5 | -2.8 | 7.0 | -4.0 | 0.0 | -3.6 | 0.4 | 2.9 | 97.3* | 0.4
CC(=O)Nc1ccc(NC(=O)Cn2nc([N+](=O)[O-])c(Br)c2C)cc1 | 42.0 | -4.7 | 8.9 | 7.1 | 1.0 | -2.4 | -16.2 | 0.7 | · | 0.0
COc1ccc(OC)c(NC(=O)CSc2ncnc3c2cnn3-c2ccccc2Cl)c1 | 15.1 | -87.1 | · | · | · | 129.3* | -1.8 | -4.5 | -17.1 | -0.2
CC(=O)Nc1ccc(NC(=O)c2ccc3c(c2)C(=O)N(c2ccccc2C)C3=O)cc1 | -22.1 | -3.9 | 8.0 | 10.2 | -0.1 | -5.9 | 18.8 | -2.8 | 0.9 | 0.9
COc1cccc(CNC(=O)C2CCCN(S(=O)(=O)N3CC(C)CC(C)C3)C2)c1 (centres undefined) | -2.0 | -8.6 | -3.1 | -7.2 | -2.8 | -1.0 | 2.0 | -9.9 | -3.8 | -0.1
CC(=O)NCC1CCCN(C(=O)c2ccc(OC3CCN(Cc4ccccn4)CC3)cc2)C1 (centres undefined) | -12.3 | 5.6 | 4.2 | 12.9 | 0.7 | · | 0.6 | · | -1.0 | ·
Cc1cc(NC(=O)CSc2ccc3nnc(-c4ccccn4)n3n2)no1 | -8.2 | -1.8 | 12.3 | 9.8 | -0.1 | -6.1 | 6.5 | 1.2 | -26.4 | 0.1
O=C(COC(=O)c1ccc([N+](=O)[O-])o1)Nc1cccc(S(=O)(=O)N2CCCCC2)c1 | -5.3 | -1.1 | 2.1 | 1.2 | -0.6 | 23.3 | 8.7 | 1.7 | · | 1.8
CCC(C)c1ccc(O)c(NC(=S)NC(=O)c2cccnc2)c1 (centres undefined) | -19.6 | -5.1 | -51.8 | -78.0 | -17.3 | · | 81.8* | 6.5 | 98.2* | 0.1
[N-]=[N+]=NC[C@H](Cc1ccccc1)N1CCN(Cc2ccccc2)CCC1=O | -4.8 | 1.5 | 1.0 | 3.9 | -4.6 | -1.6 | -8.4 | 13.2 | -4.7 | -1.1
CCn1cc(C(=O)N(C)c2ccc(OC)cc2OC)c2cc(OC)c(OC)cc2c1=O | -16.0 | -0.7 | 1.6 | 0.5 | -2.7 | 6.3 | 11.6 | 2.4 | -2.4 | 0.9
O=C(NC1CC1)C1CCCN(C(=O)NC2CCCCC2)C1 (centres undefined) | 0.7 | -7.4 | 11.4 | 4.4 | -3.2 | -5.3 | 0.2 | -0.3 | -1.2 | 0.5
CCCn1c(SCC(=O)N2CC(=O)Nc3ccccc32)nc2ccccc21 | -2.5 | -2.1 | 6.7 | 1.9 | 2.3 | 1.1 | -8.3 | 2.5 | -7.8 | 0.0
C=C(C)CN(CC)C(=O)CN1C(=O)NC2(CCCc3ccccc32)C1=O (centres undefined) | -12.3 | 7.7 | 20.9 | 7.9 | 3.6 | 3.2 | -2.0 | -16.2 | 4.6 | 1.4

Entries of single compounds from above.
Profile of CCn1c(SCC(=O)Nc2nccs2)nnc1-c1cccnc1 : T cruzi repl: 0.2; B2AR ag: -0.8; Ecoli rRNA inh: 1.5; Ecoli rRNA inh OD600: 1.9; Ecoli rRNA inh RFP: -1.5; Beta apoptosis: ·; Calb FLC: -2.7; LANA-H2B inh: 2.4; ALR inh: -17.1; Bfl-1 A1 inh: 0.2
Profile of COC(=O)[C@@H](NC(=O)Nc1cccc(Br)c1)C(C)C : T cruzi repl: -10.9; B2AR ag: -3.2; Ecoli rRNA inh: -0.5; Ecoli rRNA inh OD600: -3.3; Ecoli rRNA inh RFP: -3.3; Beta apoptosis: 0.7; Calb FLC: -27.1; LANA-H2B inh: -2.6; ALR inh: ·; Bfl-1 A1 inh: 0.1

The list goes on:
SMILES | T cruzi repl | B2AR ag | Ecoli rRNA inh | Ecoli rRNA inh OD600 | Ecoli rRNA inh RFP | Beta apoptosis | Calb FLC | LANA-H2B inh | ALR inh | Bfl-1 A1 inh
Cc1cc(C)c2c(=O)[nH]c(SCc3ccccc3)nc2n1 | -12.5 | 10.6 | 8.3 | 8.0 | 4.0 | -3.3 | 37.4 | 2.2 | -1.3 | -0.3
Cc1ccnc(NC(=O)CCC(=O)N(CC(=O)NCc2ccccc2)Cc2cccs2)c1 | 4.6 | 0.4 | 13.3 | 27.8 | 2.5 | -18.0 | -3.1 | -13.3 | -1.2 | 0.2
CN1CCN(C(=O)/C(=C\c2cccnc2)NC(=O)c2cccc(Br)c2)CC1 | -9.4 | 3.3 | 4.4 | 2.7 | -0.8 | 0.2 | -10.7 | 2.2 | -10.0 | 0.2
Cc1ccc(C(=O)N/N=C\c2cccn2C)cn1 | -9.6 | 6.2 | · | · | · | -8.4 | -6.3 | 1.6 | 8.3 | 2.7
CC(NC(=O)Nc1ncccn1)(C(F)(F)F)C(F)(F)F | -3.7 | 6.0 | · | · | · | -5.3 | -1.9 | -1.5 | -8.7 | 0.9
O=C1C2C3C=CC(C2C(=O)N1c1ccc(O)cc1)C1C2C(=O)N(c4ccc(O)cc4)C(=O)C2C31 (centres undefined) | 3.1 | -1.4 | 4.5 | 1.7 | 0.8 | -2.3 | 12.4 | 0.4 | -4.8 | 0.5
COc1ccccc1C(=O)OCc1cc(=O)n2ccsc2n1 | · | -12.1 | · | · | · | -3.1 | · | 1.5 | · | -1.5
Cc1cc(C)c(S(=O)(=O)N2CCCCC2CCNC(=O)C(=O)NCC2CCCO2)c(C)c1 (centres undefined) | 0.2 | 5.3 | -3.9 | -3.4 | 0.8 | 5.3 | -10.2 | -2.4 | 0.8 | 0.3
CN(C(=O)c1cccc(NC(=O)Cc2ccccc2)c1)c1ccccc1 | -3.8 | -2.0 | 1.4 | -3.6 | 2.1 | 15.0 | 13.2 | 4.6 | -11.6 | -0.7
COC(=O)c1c(NC(=O)c2ccc(N(C)S(=O)(=O)c3ccc(C)cc3)cc2)sc2c1CCCC2 | 6.5 | -5.5 | 5.2 | 6.1 | 0.7 | -0.4 | -6.2 | -1.6 | -28.1 | 0.6
COCc1cc(C)nc(Sc2nc3c(c(=O)n(C)c(=O)n3C)n2C)c1C#N | -18.0 | 11.8 | 0.4 | 13.7 | -1.6 | · | -3.6 | · | · | ·
CCOC(=O)C1(C)NC(c2ccc(OC)cc2OC)C2C(=O)N(c3cccc(OC)c3)C(=O)C21 (centres undefined) | -13.2 | -0.1 | · | · | · | -4.1 | -3.1 | 5.5 | -6.3 | -1.2
C=CCOC(=O)C1=C(C)Nc2nnnn2C1c1cccc(OC)c1OC (centres undefined) | -6.8 | -6.6 | · | · | · | -0.8 | -3.9 | -9.6 | 1.3 | 0.4
COc1c(C)cc(Br)cc1C(=O)Nc1cccc(NC(=O)c2ccco2)c1 | 25.5 | 3.8 | -22.7 | -30.5 | -18.0 | 11.0 | -5.3 | -3.0 | · | 0.0
CCN(CC)C1CCN(C(=O)c2ccc(OC3CCN(CCc4ccccc4)CC3)cc2)C1 (centres undefined) | 19.7 | 12.7 | 8.8 | 9.0 | 2.8 | 0.7 | -7.4 | -6.1 | -2.8 | ?
Cc1cccc(NC(=S)N/N=C2\CC(C)(C)Oc3ccc(O)cc32)c1 | 20.0 | -11.2 | 3.8 | 3.5 | 0.7 | 4.6 | 3.1 | -2.1 | 19.0 | 1.1
COc1ccc(-c2nc(C(=O)NCCCN3CCOCC3)cc3c2[nH]c2ccccc23)cc1OC | 21.3 | 2.3 | · | · | · | 31.5 | -2.1 | 4.3 | · | 0.9
Cc1ccccc1NC(=O)CCC(=O)N/N=C/c1ccc(F)cc1 | 7.4 | 3.1 | 10.7 | 14.3 | -0.5 | -8.6 | 43.8 | 2.8 | -0.4 | 0.2
O=S(=O)(/N=C(/c1ccccc1)N1CCCCC1)c1ccccc1 | 0.4 | -5.2 | · | · | · | 0.1 | 0.3 | 2.1 | -13.8 | 0.0
C[C@@H](NC(=O)c1nc[nH]c1C(=O)NCC(=O)OC(C)(C)C)c1ccccc1 | -16.2 | -7.0 | -7.6 | -9.3 | -11.2 | -2.1 | 3.6 | -5.3 | 2.6 | 0.8
O=C(COC(=O)C1CC2C=CC1C2)Nc1cccc(S(=O)(=O)N2CCCCCC2)c1 (centres undefined) | -21.1 | 3.7 | · | · | · | 4.1 | 11.1 | 4.1 | 35.7 | -0.2
O=C(CSc1nnc(COc2ccc(Br)cc2)o1)NC1CCCCC1 | 6.7 | 3.2 | 6.9 | 6.6 | -0.8 | -1.8 | -22.1 | -2.6 | -4.5 | 0.3
Cc1[nH]c(=S)c(C#N)c(C)c1CCC#N | -11.2 | 9.6 | 8.4 | 4.1 | 0.3 | -2.5 | 8.9 | -9.3 | -8.3 | 1.1

Some of the compounds tested; rates above refer to the full screens.
